NPYLR7 ag – mosquito NPYLR7 agonism. HEK293T NPYLR7/Galpha15, GCaMP6s calcium fluorescence. activation, % at 10 µM. hit rate 0.15% among 270,000; in the data active = activation above about 40%;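 also: 0% = vehicle and 100% = reference agonist at the receptor; some compounds past the cut are filed as inactive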
NPYLR7 ag max-min – further read-out of NPYLR7 ag, marked with its call; activation, %; measured here: Max-Min RFU normalised activation; some inactives read as strong as hits;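 span of the calcium signal over five minutes; 0% = vehicle and 100% = native peptide agonist; compound fluorescence can raise it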
* marks the source's active call; other numbers are inactive results; & = joins results of further samples. The list is partial. The share of hits here may be higher or lower than overall.

Values in the order: NPYLR7 ag max-min, NPYLR7 ag
- COc1ccc(OC)c(-c2cnc(-c3cccc(CNC(=O)C(C)(C)OC(C)=O)c3)[nH]2)c1
→ -3, 3
- COc1ccc(NC(C)=O)cc1N1C(=O)C(O)=C(C(=O)C2CC2)C1c1ccc(C)cc1C (stereo not drawn)
→ 4&-3, 1&3
- CC1CCCC(NC(=O)C(C)N2CCN(S(=O)(=O)c3ccc(Cl)s3)CC2)C1C (stereo not drawn)
→ -1, 0
- Cc1ccccc1CN1CCC(CNC(=O)c2cccn(C)c2=O)C1 (stereo not drawn)
→ 1, 13
- Cc1c(C(=O)NCc2ccccc2C(F)(F)F)sc(=O)n1Cc1ccc2c(c1)OCO2
→ 8, 14
- Cc1cc(C)nc(SCCn2c(N3CCCCCC3)nc3c2c(=O)n(C)c(=O)n3C)n1
→ -1, -1
- Cc1cccnc1Cn1nc(C2CCNCC2)n(Cc2ccccc2)c1=O
→ -1, 3
- O=C(Nc1cc(NC(=O)c2ccccc2)cc(-c2nc3ccccc3o2)c1)c1ccccc1
→ -1, 0
- O=C(NCc1ccco1)c1ccc(CS(=O)(=O)c2ccccc2)o1
→ -7, -3
- COc1ccc(F)cc1S(=O)(=O)NCc1ccccc1Cl
→ 5, 2
- CCn1ncc(NC(=O)Cn2ncc3cc(-c4ccc(C)o4)ccc32)n1
→ -4, -1
- CC1CCC(=O)N1c1ccc(-n2cnnc2)cc1 (stereo not drawn)
→ -3, -1
- COC[C@H]1C[C@H]2C[C@@H](Oc3ccccn3)[C@H](N(C)Cc3cccc(F)c3)[C@]2(O)CO1
→ -2, 1
- Cc1cccnc1CN1CCN(c2nccc(C3CCCC3)n2)CC1
→ -7, -3
- COc1ccc(S(=O)(=O)N2CCCC(C)C2)cc1N1CCN(C(=O)c2cc(C)oc2C)CC1 (stereo not drawn)
→ 27, 20
- COc1cnc(-c2ccccc2OC)c(NC(=O)c2ccco2)n1
→ -3, 7
- CC1(C)CN(C2(CNC(=O)CCn3cncn3)CCCCC2)CCO1
→ -19, 8
- O=C(/C=C/c1ccccc1Cl)N1CCN(c2nccc(-c3ccc(N4CCOCC4)cc3)n2)CC1
→ 22, 24
- CC(C)COC(=O)Sc1nc2ccccc2[nH]1
→ 6, 5
- O=C(NCC(c1ccc(F)cc1)N1CCCC1)c1cn(-c2ccccc2)nn1 (stereo not drawn)
→ -1, 2
- CN1CCN(c2ccc([N+](=O)[O-])cc2C(=O)Nc2ccc(Cl)c(Cl)c2)CC1
→ 5, 5
- O=C(O)c1c[nH]c(=O)c([N+](=O)[O-])c1
→ 4, -3
- Fc1cccc(F)c1Cn1ccnc1-c1cccc2c1OCO2
→ 13, -5
- CN(C)c1ccc(CNc2ccccc2C#N)cn1
→ 1, 4
- O=C(Nc1ncccc1O)c1ccc(-c2ccc(Cl)cc2Cl)o1
→ -4, -3
- COc1ccc(C2CCCCCN2C(=O)c2c[nH]c3ncccc23)cc1 (stereo not drawn)
→ 3, 0
- CCc1nc(CC(=O)Nc2ccnn2Cc2ccccc2F)cs1
→ 6, 11
- Cn1c(=O)cc(C(=O)N2CCC(c3ccc(C(=O)O)cc3)C2)c2ccccc21 (stereo not drawn)
→ 1, 3
- Cn1c(=O)c2[nH]c(NCC3CCCO3)nc2n(-c2ccccc2)c1=O (stereo not drawn)
→ 6, 15
- CC(C)(C)OC(=O)N1CCC(C(=O)NC(c2ccc(S(C)(=O)=O)cc2)c2ccc3c(c2)CCO3)CC1 (stereo not drawn)
→ -15, -10
- S=C=Nc1ccc(N=C=S)cc1
→ -11, -3
- CCSc1nnc(-c2cn(C)nc2OC)n1CCOC
→ 6, 5
- N#CCCCN1CCC(OCc2ccc(Cl)c(Cl)c2)CC1
→ 6, 7
- Cc1nn2c(nc(NC3CCCC3)c3ccccc32)c1Cl
→ 2, 2
- Fc1cccc(Nc2n[nH]c(=S)s2)c1
→ 3, 4
- COc1ccc(Nc2cc(C)nc(N3CCN(C(=O)C(C)C)CC3)n2)cc1
→ -2, 5
- FC(F)(F)c1cnc(NNC(=S)NCC2CCCO2)c(Cl)c1 (stereo not drawn)
→ 0, 0
- CCCCCN(CC(=O)Nc1cc(-c2ccccc2)nn1-c1ccccc1)C(=O)c1cc(C(F)(F)F)cc(C(F)(F)F)c1
→ 6, 8
- Cc1nnc(Sc2ccc(C#N)cn2)n1C1CCCCC1
→ 6, 7
- CN(CC1Cc2ccccc2O1)C(=O)CCC1(Cc2cccs2)CCC(=O)N1 (stereo not drawn)
→ 3, 8
- O=C(c1cccc(O)c1)N1C[C@H]2OC(=O)N(CCCc3ccc(F)cc3)[C@H]2C1
→ -5, -2
- CCOc1ccc(NC(=O)Cn2nc3c(cc2=O)CCCC3)cc1
→ -25, -23
- NC[C@@H]1O[C@H](O[C@H]2[C@@H](O)[C@H](O[C@@H]3[C@@H](O)[C@H](N)C[C@H](N)[C@H]3OC3O[C@H](CO)[C@@H](O)[C@H](O)[C@H]3N)O[C@@H]2CO)[C@H](N)[C@@H](O)[C@@H]1O (stereo partly drawn)
→ -5, 2
- Cc1csc(=O)n1CC(=O)NCC12CC3CC(CC(C3)C1)C2
→ 14, -3
- CC(=O)Nc1ccc(Cl)cc1-c1cccc(C(C)=O)c1
→ 3, 4
- COc1ccc(C2c3[nH]c4ccccc4c3CCN2C(=O)COc2ccccc2)cc1C (stereo not drawn)
→ -1, 1
- COC[C@H]1CCCN1Cc1cccc(C(=O)Nc2cc(C)cc(C)n2)c1
→ 1, 1
- CC1CCCCC1N1CCN(Cc2ccco2)CC1 (stereo not drawn)
→ 2, 2
- COc1ccc(CN(Cc2ccco2)C(=O)c2ccc(F)cc2)cc1OS(C)(=O)=O
→ 11, -3
- O=S(=O)(Oc1cccc(CNCc2ccco2)c1)c1ccc(F)cc1
→ 33, 36

Next section
Values in the order: NPYLR7 ag max-min, NPYLR7 ag
- CCOc1ccc(-c2nnc3ccc(SCC(=O)Nc4ccc(C(C)=O)cc4)nn23)cc1
→ 15, 2
- CC(C)CC(C(=O)Nc1ccc(C2CCCC2)cc1)N1CCN(C)CC1 (stereo not drawn)
→ -2, 2
- CCCC(=O)N1CCC1(C)C(=O)Nc1ccc(Cl)c(Cl)c1 (stereo not drawn)
→ 3, 8
- CSCC(C)C(=O)N1CCCC1c1cccc(N(C)C)c1 (stereo not drawn)
→ 1, 3
- CCOC(=O)Nc1cc(C)nn1-c1nc(-c2ccc(C)cc2)cs1
→ -15, -12
- CSc1nnc2c(n1)OC(c1ccc(F)cc1)Nc1ccccc1-2 (stereo not drawn)
→ -5, 1
- NC(=O)c1nnc2n1CCN(C(=O)c1ccc3sccc3c1)C2
→ 3, 8
- COC(=O)c1cc2c(s1)CCC2
→ 7, 7
- Cc1ccc(NC(=O)N2CCN(CCCOC(c3ccc(Cl)cc3)c3ccc(Cl)cc3)CC2)cc1
→ -1, -3
- CC(=O)Nc1cccc(-c2ncc(C)c(N)n2)c1
→ 1, 8
- CC1(C)Oc2ccccc2OC1(O)c1ccc2ccccc2n1 (stereo not drawn)
→ 2, 2
- COc1ccc(C(NC(=O)c2ccc(=O)n(C)n2)C(C)C)cc1 (stereo not drawn)
→ 0, 0
- CCOC(=O)C1=CN(CC)C(=CC=Cc2sc(C(=O)OCC)c[n+]2CC)S1
→ -2, 0
- O=C(Cc1cccs1)Nc1nnc(C2CC2)s1
→ 5, 0
- CCOC(=O)C(C)N(CC(=O)N(Cc1ccc(F)cc1)Cc1ccco1)CC(C)C (stereo not drawn)
→ 2, -4
- Nc1nc(CSCC(=O)O)cs1
→ -4, -2
- O=[N+]([O-])c1ccc(O)c(/C=N\NC2=NS(=O)(=O)c3ccccc32)c1
→ -21, -8
- CCOC(=O)C1(CC2CCCCO2)CCN(Cc2cccc(C(F)(F)F)c2)CC1 (stereo not drawn)
→ -3, 1
- CCOC(=O)[C@@H]1C[C@H]2CN(CCOC)C(=O)c3cccc(c32)N1C(=O)c1ncoc1-c1ccccc1
→ 12, 3
- COc1ccccc1C(C)NC(=O)N(C)Cc1cnn(C)c1 (stereo not drawn)
→ -3, 0

Record cards (already shown). Screens in order: NPYLR7 ag max-min, NPYLR7 ag
Profile of CC1(C)Oc2ccccc2OC1(O)c1ccc2ccccc2n1 (stereo not drawn) = 2, 2
Profile of O=C(Cc1cccs1)Nc1nnc(C2CC2)s1 = 5, 0

Next section.
Values in the order: NPYLR7 ag max-min, NPYLR7 ag
- CC(=O)N1CCN(C(=O)CN2CCC(c3ccccc3C)CC2)CC1
→ 5, 9
- Cc1cc(O)c(C(c2ccccc2Cl)N2CCN(CCO)CC2)c(=O)n1Cc1cccnc1 (stereo not drawn)
→ 3, 14
- CC1(C)CCCC2(C)CC(CC(=O)N3CCOCC3)C(C)(O)CC12 (stereo not drawn)
→ -6, -3
- CC(C)(C)C(O)Cn1c(=N)n(Cc2ccccc2)c2ccccc21 (stereo not drawn)
→ 18, 3
- CCOC(=O)c1sc2nc(CN3CCCCCC3)nc(N3CCCCCC3)c2c1C
→ -11, -9
- CCOC(=O)CCNC(=O)NCc1nnnn1-c1ccc(Cl)cc1
→ -7, -7
- CN1CCCC(CNc2ccc(-c3nc(-c4ccccc4F)no3)cn2)C1 (stereo not drawn)
→ -19, -20
- CCc1nc2ncc3c(n2n1)CC=NNC3=O
→ 9, 3
- CCN(C(=O)Cn1ccc(C(F)(F)F)n1)c1cc(C)ccc1C
→ 3, 3
- Cc1cc(N)on1
→ 8, 3
- CCCCn1c(N)c(N(CC)C(=O)CCSC)c(=O)[nH]c1=O
→ 7, -2
- CCS(=O)(=O)Oc1cccc(CN(Cc2ccco2)S(=O)(=O)c2ccc3ccccc3c2)c1
→ 36, 20
- Cc1ccc(-c2nccn2CC2CC2)c(F)c1
→ 19, -1
- O=S(=O)(c1ccccc1)c1[nH]c(-c2ccccc2)nc1S
→ 4, 5
- CC(=O)NC(CC(=O)NS(=O)(=O)c1cccc(C#N)c1)c1cccs1 (stereo not drawn)
→ 6, 8
- Cc1cc(NC(=O)C2(C)CCN2C(=O)c2ccccc2CCc2ccccc2)no1 (stereo not drawn)
→ -5, -5
- CCNC(=O)NC(=O)C(C)Sc1nc2sc(C)c(C)c2c(=O)n1C1CCCC1 (stereo not drawn)
→ -1, 1
- COc1ccccc1/C=C/CN1CCNC(=O)C1CC(=O)N1CCSCC1 (stereo not drawn)
→ -2, 1
- CCc1nc(SCC(=O)N2[C@@H]3CC[C@H]2CC(O)C3)n[nH]1 (stereo partly drawn)
→ 5, 7
- COc1ccc(Cl)cc1CC1(C)C(=O)Nc2ccc(S(=O)(=O)NC3CCCCC3)cc21 (stereo not drawn)
→ 3, 3
- CN(C)CCN(C(=O)CCCS(=O)(=O)c1ccc(F)cc1)c1nc2ccccc2s1
→ 7, 7
- COc1ccc(CCN(C)C2CCCN(Cc3cccn3-c3cccnc3)C2)cc1OC (stereo not drawn)
→ 0, 4
- Cc1c(Cn2cc3ncccc3c2O)oc2ccccc12
→ -1, 3
- O=C(COC(c1ccccc1)C(F)(F)F)N1CCc2c(nc[nH]c2=O)C1 (stereo not drawn)
→ 4, 8
- COc1ccc(C)cc1NS(=O)(=O)c1cc([N+](=O)[O-])ccc1OC
→ 1, 2
- Cc1ccccc1NC1=NS(=O)(=O)c2cc([N+](=O)[O-])ccc21
→ -16, -9
- COC(=O)[C@]1(C)C[C@H](C(=O)N(C)Cc2cc(C)no2)[C@H](c2ccccc2C)N1C
→ 2, 4
- Cc1ccccc1Nc1nc(-c2cc3cc(Br)ccc3oc2=O)cs1
→ -6, -3
- O=C(Cn1nc(-c2cccs2)c2sc(N3CCOCC3)nc2c1=O)N1CCCc2ccccc21
→ -9, -4
- O=c1c2c(-c3ccccc3)n3ncnc3nc2ccn1-c1ccccn1
→ -23, -17

Next section, starting with the last 6 of the part before.
Values in the order: NPYLR7 ag max-min, NPYLR7 ag
- COc1ccc(C)cc1NS(=O)(=O)c1cc([N+](=O)[O-])ccc1OC
→ 1, 2
- Cc1ccccc1NC1=NS(=O)(=O)c2cc([N+](=O)[O-])ccc21
→ -16, -9
- COC(=O)[C@]1(C)C[C@H](C(=O)N(C)Cc2cc(C)no2)[C@H](c2ccccc2C)N1C
→ 2, 4
- Cc1ccccc1Nc1nc(-c2cc3cc(Br)ccc3oc2=O)cs1
→ -6, -3
- O=C(Cn1nc(-c2cccs2)c2sc(N3CCOCC3)nc2c1=O)N1CCCc2ccccc21
→ -9, -4
- O=c1c2c(-c3ccccc3)n3ncnc3nc2ccn1-c1ccccn1
→ -23, -17
- COCCN(CCOC)P1(=O)C=C(c2ccccc2)OC(c2ccccc2)=C1
→ -3, 0
- O=C(NCCCc1nc2ccccc2o1)c1scc2c1OCCO2
→ 1, 2
- O=C(CCc1nnc(C2CCCCC2)o1)N1CCN(c2ccccc2F)CC1
→ 0, 2
- CCCCCCCCCCCC(=O)N1CCN(C(=O)CCCCSc2nnc(Cc3ccccc3)n2-c2ccc(Cl)c(Cl)c2)CC1C (stereo not drawn)
→ 13, 0
- CCOC(=NC(=O)c1cccc(C(F)(F)F)c1)N(C)C1CCN(C)CC1
→ 23, 28
- CCC(=O)Nc1cc(ON=C(C)C)cc([N+](=O)[O-])c1
→ -8, -4
- C=CCNC(=O)COc1ncnc2sc3c(c12)CCC3
→ 3, 3
- CC(C)c1nc(CCNC(=O)C2CCCN(C3CCCCC3)C2)no1 (stereo not drawn)
→ -11, -11
- Cc1oc(C)c(-c2ccccc2)c1C(=O)Nc1ccc(C(C)(C)C)cc1
→ -15, -13

Screens from PubChem.
